Screening data deposited in PubChem BioAssay by PCMD.
Calb biofilm kill – mixture kills Candida albicans biofilm cells; C. albicans biofilm persisters + clotrimazole, fluorescence viability; primary screen in compound mixtures of four per well; inhibition, % at 7.6 µM; hit rate 0.02% among 120,000; AID 1242;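 active means inhibition above 30.3% in the primary screen of four-compound pools, then above 30% when the compound was retested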;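 further: compounds exposed to preformed 24 h biofilms for 48 h; the number belongs to the whole pool; some results filed as inactive read as strong as hits; inactives centre near 12; 0% = biofilm with clotrimazole alone and 100% = kill control; retested singly at about 60 µM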
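Test system: C. albicans biofilms. Buffer or medium: RPMI/MOPS medium, pH 7.0. Timing: 48 h compound exposure at 37 °C. Technique: Alamar Blue fluorescence. Evaluation: percent inhibition of biofilm viability.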
Active calls of the source: *. Some of the compounds tested. The share of hits here may be higher or lower than overall.

Molecule,Calb biofilm kill
CCOc1ccccc1N1CC(C(=O)Nc2cccc(S(=O)(=O)N3CCCCC3)c2)CC1=O (configuration not stated),16
CCOC(=O)c1cccnc1SCC(=O)Nc1ccc(C)cc1,5
CC1Cc2ccccc2N1CC(=O)NC(=O)NC1CCCCC1 (configuration not stated),5
COc1cc(/C=N/NC(=O)c2ccncc2)ccc1OCc1cnc(Cl)s1,12
O=C1CCC2c3ccc4ccccc4c3CCN12 (configuration not stated),14
Cc1nn(C)c(N)c1[N+](=O)[O-],8
COc1ccc(CC(=O)NNC(=O)c2nn(Cc3ccccc3)c(=O)c3ccccc23)cc1OC,4
Cc1ccc(S(=O)(=O)CCC(=O)Nc2ccc(S(=O)(=O)N(C)C)cc2)cc1,8

In a second layout: 2 of the compounds above.
COc1ccc(CC(=O)NNC(=O)c2nn(Cc3ccccc3)c(=O)c3ccccc23)cc1OC
  Calb biofilm kill = 4

Cc1ccc(S(=O)(=O)CCC(=O)Nc2ccc(S(=O)(=O)N(C)C)cc2)cc1
  Calb biofilm kill = 8

The main list resumes, repeating the three entries before the break.
Molecule,Calb biofilm kill
Cc1nn(C)c(N)c1[N+](=O)[O-],8
COc1ccc(CC(=O)NNC(=O)c2nn(Cc3ccccc3)c(=O)c3ccccc23)cc1OC,4
Cc1ccc(S(=O)(=O)CCC(=O)Nc2ccc(S(=O)(=O)N(C)C)cc2)cc1,8
Cc1ccc(S(=O)(=O)c2nc(NN(C)C)sc2Cl)cc1,27
CCC(C)(C)NC(=O)C(c1ccc(C)cc1)N(Cc1cccnc1)C(=O)c1csnn1 (configuration not stated),11
O=c1[nH]nc(-c2ccc(F)cc2)cc1Cc1cccs1,22
CCc1ccc(/C=C/C(=O)c2ccc(S(=O)(=O)N(C)C)cc2)cc1,-10
O=C(CN1CCN(S(=O)(=O)c2ccc(Br)cc2)CC1)N/N=C/c1cccnc1,-4
O=C(N=Nc1c(O)[nH]c2ccccc12)c1ccco1,4
CC(C)Nc1nnc(SCC(=O)/C=C2\N(C)c3ccccc3C2(C)C)s1,-7
Cc1ccc(C(=O)N/C(=C\c2cccs2)C(=O)NCC2CCCO2)cc1C (configuration not stated),19
Cc1cc(C)c2[nH]c(C(=O)Nc3ccc4c(c3)OCO4)cc2c1,22
CSCc1ccc(C(=O)Nc2ccc(C(N)=O)cc2)cc1,18
S=c1[nH]nc(-c2ccccn2)n1/N=C/c1ccc(-c2ccccc2Cl)o1,6
COc1ccc(-c2ccc(F)cc2)cc1[C@H]1[C@H]2C=CC[C@@H](C)[C@@H]2C(=O)N1Cc1ccccc1,18
CCCCn1c2ccccc2c2nnc(SCC(=O)NC3=NN=C(c4ccccc4)CS3)nc21,9
CC(=O)Nc1ccc(NC(=O)COC(=O)c2cnccn2)cc1,2
Cc1cccc(C2c3[nH]c4ccccc4c3CCN2Cc2cccn2-c2ncccn2)c1 (configuration not stated),8
N#CNC(=Nc1ccccc1F)SCc1ccc(C(=O)O)cc1,45
CSc1nc(Cl)cc(Nc2ccccc2N)n1,12
O=[N+]([O-])c1ccccc1-c1ccc(C(=S)N2CCCC2)o1,25
Cc1ccc(OCc2nnc(N)s2)cc1,20
O=S(=O)(Nc1ncccn1)c1ccc(NC(=S)NCCc2ccc(Cl)cc2)cc1,6
CCCCC(=O)NNC(=S)NCc1ccccc1,4
O=C(NC1CC1)c1cccc(Br)c1,8
Cc1cc(C)c(C)c(S(=O)(=O)Nc2ccccc2C(=O)NCCCN2CCOCC2)c1C,13
Nc1cc(-c2ccc(Cl)cc2)nn1-c1ccccc1,10
COc1ccc(CCN2C(=O)NC(NS(=O)(=O)c3ccc(NC(C)=O)cc3)(C(F)(F)F)C2=O)cc1OC (configuration not stated),15
COC(=O)c1ccccc1NC(=O)CCS(=O)(=O)c1ccc(Br)cc1,11
CCNC(=O)COc1ncnc2scc(-c3ccc(F)cc3)c12,-2
Cc1nn(CC(=O)NCc2ccccc2F)c(C)c1[N+](=O)[O-],4
Cc1cc(C(=O)CSc2nnc3ccccn23)c(C)n1-c1ccccc1,5
Clc1ccc2c(c1)C(N1CCNCC1)=Nc1ccccc1O2,24
CCOC(=O)c1sc(NC(=O)/C=C/c2c(F)cccc2Cl)nc1C,12
CCN(CC)C(=O)C[n+]1cccc(/C=N/O)c1,7
COCCNC(=O)c1cc(S(=O)(=O)N(C)c2ccccc2OC)ccc1C,24
O=C(NC(N1CCOCC1)C(Cl)(Cl)Cl)c1ccco1 (configuration not stated),18
Cc1[nH]c2ccccc2c1-c1csc(NC(=O)CSCCO)n1,9
Cc1cc(NC(=O)NCC(F)(F)F)no1,13
CC1CCN(C(=S)c2ccc(-c3ccc(Cl)cc3Cl)o2)CC1,6
COc1nc(NCc2cccnc2)nc(NC2CCCCC2)n1,6
CCOc1ccc2ccccc2c1CNc1nnnn1C,12
O=C(N/N=C/c1ccccn1)c1ccc(S(=O)(=O)N2CCCCCC2)cc1,9
COc1cc(SC#N)ccc1N=Cc1c(C)[nH]n(-c2ccc(C)c(C)c2)c1=O,6
COc1cc(/C=C/C(=O)OCC(=O)NCc2cccs2)ccc1OC(F)F,-5
COc1cc(OC)c2ccc(=O)oc2c1C(CC(=O)N1CCCC1)c1ccc(N(C)C)cc1 (configuration not stated),9
COCCNC(=S)NC(=O)CC12CC3CC(CC(C3)C1)C2,12
COc1ccc(NC(=O)CSc2ccc(-c3ccccn3)nn2)cc1OC,10
COc1cccc(NC(=O)C(Cc2ccccc2)NC(=O)C2CCC(C)CC2)c1 (configuration not stated),4
CN(CCOc1ccccc1)CC(=O)Nc1ccc(S(=O)(=O)N2CCCC2)cc1,11
CC(=O)N1CCN(c2cc(N3CCCC3)c(F)cc2[N+](=O)[O-])CC1,6
CC1(C)OC2OC(COC(=O)c3ccccc3)C3OC(C)(C)OC3C2O1 (configuration not stated),19
Cc1ccc(C)c(OCc2nnc(SCC(=O)NCc3ccc4c(c3)OCO4)o2)c1,9
CC(=O)Nc1cccc(/C(C)=N/NC(=O)c2ccc(NS(=O)(=O)c3cccs3)cc2)c1,3
CCC(C)NC(=O)c1c(F)c(F)c(F)c(F)c1F (configuration not stated),6
Cc1c(NC(=O)COC(=O)C2(c3ccccc3F)CCCC2)c(=O)n(-c2ccccc2)n1C,15
O=C(NCCN1CCOCC1)C(=O)NCc1ccco1,8
CCc1nnc(N2C(=O)c3ccc(Oc4ccc([N+](=O)[O-])cc4)cc3C2=O)s1,17
COc1cc(NC(=O)c2cccnc2SC)cc(OC)c1,17

(more compounds)
Molecule,Calb biofilm kill
CCOc1ccc(NC(=O)NNC(=O)c2ccc(CC)s2)cc1,7
COc1ccccc1NS(=O)(=O)c1cc(NC(=O)c2cc[n+]([O-])cc2)ccc1N1CCCC1,18
Cc1ccc(CN2CCc3[nH]c(=O)[nH]c(=O)c3C2)cc1,7
COC(=O)Nc1ccc2c(c1)OCO2,7
CCOC(=O)c1[nH]cnc1C(=O)Nc1ccc(Cl)cc1,30
CCCCC(=O)Nc1ccccc1Oc1ccccc1,-4
CN(CCO)c1ccc(-c2nn(C)c(=O)c3ccccc23)cc1[N+](=O)[O-],16
COc1ccccc1-c1cc2nc(C)cc(C)n2n1,13
COC(=O)N=Nc1c(O)n(Cc2ccccc2)c2ccccc12,8
CCc1cc(C(=O)N2CCCC(CCC(=O)NCc3cccc(OC)c3)C2)no1 (configuration not stated),15
CCCCN1CC(O)=C(c2nc(-c3ccc(Br)cc3)cs2)C1=N,9
Cn1ncc(Br)c1C(=O)O,9
O=C(Cc1csc(Nc2nc(=S)[nH]c3ccccc23)n1)N1CCN(c2cccc(Cl)c2)CC1,13
COc1ccccc1N1C(=O)C=C(Sc2nc(C)cc(C)n2)C1=O,10
O=C(NC(=S)Nc1nc(-c2ccc(Br)cc2)cs1)c1ccco1,7
O=C(NCc1ccco1)c1ccc(CNc2c(N3CCCCC3)c(=O)c2=O)cc1,12
CN1CCN(c2nc(NCc3ccco3)nc(N)c2[N+](=O)[O-])CC1,24
Cc1cc(C)nc(SCc2nnc(SCc3ccc([N+](=O)[O-])cc3)n2Cc2ccco2)n1,12
Cc1cc(C)cc(-n2c(SCC(=O)NCc3ccc4c(c3)OCO4)nc3ccccc3c2=O)c1,8
COc1ccc(CNC(=O)CN2C(=O)CC(c3ccccc3)=Nc3ccccc32)cc1,0
CC(C)(C)c1nnc(NC(=S)Nc2ccccc2)s1,20
O=C(/C=C/c1ccccc1)NCCC1=CCCCC1,12
COc1ccc(CN(C(=O)c2cc3ccccc3oc2=O)C2CCCC2)cc1,11
COc1ccc2c(=O)c3c(=O)n(-c4ccccc4)c(-c4ccco4)nc3oc2c1,11
O=C(NC1=NCCS1)c1cc(-c2ccc(F)cc2)nc2ccccc12,7
CCc1ccnc(NS(=O)(=O)c2ccc3c(c2)CCO3)c1,27
O=C(Nc1ncc2c(n1)CC(c1ccco1)CC2=O)c1ccco1 (configuration not stated),12
CCCCCCCN=C(C)c1ccccc1O,16
O=C(Nc1ccccc1F)NC1CCCc2ccccc21 (configuration not stated),13
CCOC(=O)c1c(C)oc2ccc(OC(=O)c3cccs3)cc12,15
COc1ccc(OC)c2c(=O)cc(C(=O)O)[nH]c12,14
COc1ccc2c(c1)c(C(=O)N/N=C/c1ccccc1Cl)c(C)n2C,19
CCn1nc(NC(=O)Cc2ccc(OC)cc2)c2cc3cc(C)ccc3nc21,18
COc1ccccc1N1CCN(C2CCN(C3CCC(c4ccccc4)CC3)CC2)CC1 (configuration not stated),8
Cc1cc(/C=C2/NC(=O)NC2=O)c(C)n1-c1ccccn1,5
O=C(C[n+]1cc(-c2ccc(F)cc2)n2c1CCC2)Nc1nc(-c2ccccc2)cs1,14
CCN(CC)CCN(C(=O)CCOc1ccccc1)c1nc2c(F)cc(F)cc2s1,22
Clc1ccc(C2=NCCN2)cc1,10
CC(=O)NC1=NN(C(C)=O)C(C)(c2cccnc2)S1 (configuration not stated),22
COc1ccc2cc(CCN3C(=O)c4ccccc4C3=O)c(=O)[nH]c2c1,5
CC(C)Oc1ccc(C(=O)Nc2ccc(Cl)c(S(=O)(=O)Nc3ccc(Cl)cc3)c2)cc1,12
Cc1ccc(NS(=O)(=O)c2ccc3c(c2)C(=O)c2ccccc2C3=O)c(C)c1,8
Cc1ccc(S(=O)(=O)N(C)CC(=O)N/N=C/c2ccc(C)o2)cc1,15
Cc1nc(SCc2cccc(F)c2)c2oc3ccccc3c2n1,15
CC(=O)Nc1ccc(S(=O)(=O)NCCOc2ccc(Cl)cc2C)cc1,16
CC(OC(=O)c1nn(C(C)C)c(=O)c2ccccc12)C(=O)Nc1ncc(Cl)cc1Cl (configuration not stated),20
COc1ccc2c(c1)C1NC(=S)NC(C)(O2)C1C(=O)Nc1ccc(Cl)cc1 (configuration not stated),19
COc1ccc(N(C2=NCCCS2)S(=O)(=O)c2ccc(C(C)(C)C)cc2)cc1,3
O=C(Cc1ccc(Cl)cc1)NNc1c(F)c(F)cc(F)c1F,-2
COc1ccccc1NS(=O)(=O)c1cccc(N=C2N=C(N)c3ccccc32)c1,15
Fc1ccc(N2CCN(C(=S)NCc3ccco3)CC2)cc1,22
Cc1ccccc1Cn1nc(C)c(NC(=O)c2cc(-c3ccco3)on2)c1C,13
c1ccc(CN2CCC(=NNc3nc4ccccc4[nH]3)CC2)cc1,5
N#C/C(=C\c1ccc(-c2cccc([N+](=O)[O-])c2)o1)C(=O)NCCN1CCOCC1,19
O=S(=O)(c1cnc(Cl)c(Br)c1)N1CCc2ccccc21,17
Cc1ccc(NC(=O)CN2C(=O)N/C(=C/c3ccc(N4CCOCC4)cc3)C2=O)cc1,17

The list continues.
Molecule,Calb biofilm kill
Cc1nn(-c2ccccc2C(F)(F)F)c(=O)c2noc(C)c12,16
CC(C)[N+](C)(C)CC#CC(O)(c1ccccc1)c1ccccc1,11
O=C1CC(=O)c2c1cccc2[N+](=O)[O-],3
CCNC(=O)NC(=O)CSc1ccccc1F,16
COc1cc2c(cc1NC(=O)COC(=O)CNS(=O)(=O)c1ccc(C)cc1)oc1ccccc12,16
CCn1c(=N)c(S(=O)(=O)c2ccccc2)cc2c(=O)n3ccccc3nc21,9
O=C(c1cc(=O)[nH]c2ccccc12)N1CCN(c2ccc([N+](=O)[O-])cc2)CC1,18
Fc1ccc(-c2csc(N3CCSCC3)n2)cc1,3
Cc1n[nH]c(=O)nc1N/N=C/c1ccc(O)c([N+](=O)[O-])c1,1
Cc1c(NC(=S)Nc2ccccc2C(F)(F)F)cccc1[N+](=O)[O-],4

Ordered by length of the SMILES (high to low): four of the compounds above
Molecule,Calb biofilm kill
COc1cc2c(cc1NC(=O)COC(=O)CNS(=O)(=O)c1ccc(C)cc1)oc1ccccc12,16
CCn1c(=N)c(S(=O)(=O)c2ccccc2)cc2c(=O)n3ccccc3nc21,9
Cc1nn(-c2ccccc2C(F)(F)F)c(=O)c2noc(C)c12,16
Fc1ccc(-c2csc(N3CCSCC3)n2)cc1,3
